GLA inh pH 4.5 = alpha-galactosidase A (human) inhibition, pH 4.5; P06280; purified enzyme, 4-MU-alpha-Gal fluorescence, pH 4.5; activity change, negative = inhibition, % at 105 µM; 230,000 tested, under 10 active; AID 1467; inconclusive = small, poorly fitted or top-dose-only inhibition, or a rising curve; inactive = flat fitted curve, though single readings scatter; no compound was filed as active;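 note: 0% = full activity with enzyme and -100% = basal without enzyme; dose as in the result columns while the protocol names 77 µM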
Rango release inh = inhibitors of RanGTP-induced Rango-importin beta complex dissociation; Potency, µM (highest dose often 46.1 µM), without a hit: top-dose activity change, negative = inhibition; 340,000 compounds, 0.071% hits; Biochemical FRET Rango-importin beta, RanGTP-induced dissociation; O95149+P62826; active means falling FRET ratio curve, often poorly fitted, with flat reads before Ran was added; inconclusive means other falling curves, or compound fluorescence or quenching; inactive means flat or rising ratio curve;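 note: potency is the fitted concentration of half-maximal effect; % of control where 0% means no effect; nearly all actives have a fitted effect of over 45% in size; -100% = wells without RanGTP and RCC1; the record marks most hits as doubtful in a second field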
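Recombinant Rango FRET biosensor (EYFP–snurportin 1 IBB–cerulean CFP10) at 0.1 uM premixed with 0.25 uM importin beta in PBS, 1 mM DTT, 0.02% Tween-20, 0.1% BSA. Compound added 5 min; RanGTP-RCC1 (0.6 uM Ran, 2 mM GTP, 0.2 uM RCC1) then triggers release, read at 45 min.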
Rango complex inh = Rango-importin beta binding inhibition; Q14974; Rango CFP/YFP FRET sensor + importin beta, 45 min; Potency, µM (series often up to 92.2 µM), for inactives: at the highest dose inhibition of complex formation; 340,000 compounds, 0.031% hits; active = rising FRET ratio curve, often small or poorly fitted; inconclusive = mostly compound fluorescence or quenching in the first reads; inactive = flat curves in all reads;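 note: potency is the fitted concentration of half-maximal effect; 0% = DMSO wells and 100% = buffer wells lacking importin beta; nearly all actives have a fitted effect of over 15% in size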
Target sequence (Q14974 whole entry, looked up): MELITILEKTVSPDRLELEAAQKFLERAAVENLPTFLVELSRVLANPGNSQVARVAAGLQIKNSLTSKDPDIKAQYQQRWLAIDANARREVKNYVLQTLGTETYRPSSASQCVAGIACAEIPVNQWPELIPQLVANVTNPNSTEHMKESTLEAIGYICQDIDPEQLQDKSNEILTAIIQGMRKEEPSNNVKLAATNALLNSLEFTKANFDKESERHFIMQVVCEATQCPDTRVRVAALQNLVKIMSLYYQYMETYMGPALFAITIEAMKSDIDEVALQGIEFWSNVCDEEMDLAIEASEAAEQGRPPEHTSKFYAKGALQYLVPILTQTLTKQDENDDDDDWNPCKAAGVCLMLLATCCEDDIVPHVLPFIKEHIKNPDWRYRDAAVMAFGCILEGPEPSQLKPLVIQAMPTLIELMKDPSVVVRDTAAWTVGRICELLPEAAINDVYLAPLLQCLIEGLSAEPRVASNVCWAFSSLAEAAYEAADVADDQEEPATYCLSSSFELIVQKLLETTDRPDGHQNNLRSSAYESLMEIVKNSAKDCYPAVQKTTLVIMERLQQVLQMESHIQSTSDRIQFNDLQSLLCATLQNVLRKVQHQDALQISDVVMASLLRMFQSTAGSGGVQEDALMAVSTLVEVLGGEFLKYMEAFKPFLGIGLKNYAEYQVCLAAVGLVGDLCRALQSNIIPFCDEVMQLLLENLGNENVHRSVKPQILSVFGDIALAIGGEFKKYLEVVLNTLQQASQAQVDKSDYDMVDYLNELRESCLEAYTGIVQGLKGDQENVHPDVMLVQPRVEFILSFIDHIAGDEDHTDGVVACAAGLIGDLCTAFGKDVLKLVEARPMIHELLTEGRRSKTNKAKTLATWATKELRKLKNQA
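FRET biosensor Rango (snurportin 1 IBB between N-terminal EYFP and C-terminal Cerulean), 50 nM in PBS/1 mM DTT/0.02% Tween-20/0.1% BSA, preincubated 5 min RT with compound; 0.125 microM importin beta added, 45 min RT, CFP/YFP FRET ratio read.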
miR-21 FLuc = raises the signal of a miR-21 reporter | HeLa miR-21 FLuc reporter, luciferase, 48 h | Potency, µM (top dose mostly 38.3 µM), for inactives: top-dose reporter change, positive = more light | 340,000 tested, under 10 active | AID 2288; active = well fitted rising curve with a large enough effect; inconclusive = small, poorly fitted or top-dose-only effect; inactive = no such curve, though single readings can be large or run the other way;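 note: % of control where 0% means no effect; miR-21 action dims this reporter so a rising signal means less miR-21 action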
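Compounds were titrated across several concentrations (up to approximately 40 uM) and incubated 48 hours with HeLa miR-21-FLuc reporter cells (miR-21 target sequence downstream of FLuc, endogenous miR-21). Readout was firefly luciferase luminescence after lytic detection reagent.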
Numbers without * were called inactive; ? = inconclusive; / = not tested or not shown; & = joins results of further samples. An excerpt (hit frequency here may not be typical).

Rango complex inh	mol	GLA inh pH 4.5	Rango release inh	miR-21 FLuc
2.0%	CC(NC(=O)c1ccc(S(=O)(=O)Nc2ccccc2)cc1)c1ccc(S(N)(=O)=O)cc1 (centres undefined)	/	-10%	/
-0.1%	COc1ccc(CN2C(=O)c3cccnc3C2=O)cc1S(=O)(=O)NCc1ccco1	/	-11%	-3%
3.5%	Cc1ccc(NC(=O)CN2CCc3ccccc3C2)cc1C	/	-3%	-24%
?	COC(=O)CCCC1=CC2=C(c3ccccc3)C(=O)C(C)(OC(=O)C3CCCC3)C(=O)C2=CN1C1CC1 (centres undefined)	12&-3	?	1%
8.6%	O=C(N/N=C/c1cc([N+](=O)[O-])ccc1O)NC12CC3CC(CC(C3)C1)C2	-1	21%	-18%
3.5%	CC(=O)c1ccc(OC(=O)C2CSC3(C)CCC(=O)N23)cc1 (centres undefined)	/	-14%	/
-2.2%	O=[N+]([O-])c1cccc(S(=O)(=O)NCC2CC3CCC2C3)c1 (centres undefined)	/	11%	-3%
1.4%	Fc1ccc(CN2CCCCCCC2)cc1F	-5	4%	0%
0.4%	COc1cccc(CN(C)C(=O)C2CCC(=O)N(Cc3cccc(F)c3)C2)c1 (centres undefined)	/	-17%	-8%
-0.1%	CCOc1cc(CNCc2ccc3c(c2)OCO3)ccc1OC	/	0%	-11%
-4.7%	N#Cc1c(N)nc2c(c1-c1ccc(Br)s1)CCCC2	8	-11%	0%
4.1%	COCC(C)NC(=O)C1CCN(S(=O)(=O)c2ccc3ccccc3c2)CC1 (centres undefined)	/	-1%	/
1.3%	O=C(O)c1ccc(/C=N/n2c(C3CCCCC3)n[nH]c2=S)cc1	/	28%	-4%
-0.3%	COc1ccc(CNC(=O)C2CCN(S(=O)(=O)c3ccc(Br)s3)CC2)cc1	/	6%	6%
-3.3%	CCN(C(=O)CSc1nnc(-c2ccccc2)n1C)C1CCS(=O)(=O)C1 (centres undefined)	-1	-9%	2%
-0.4%	Cc1cc(Cl)ccc1C(=O)C1CCCN(C(=O)c2ccc3ncccc3c2)C1 (centres undefined)	3	12%	-9%
-1.3%	CC(C)(C)[C@@H]1COC(=O)[C@H](Cc2ccc(F)cc2)CC/C=C\C[C@@H](CC(=O)NCCO)C(=O)N1	/	?	/
-0.4%	CC(=O)Nc1ccc(S(=O)(=O)NCCCN2CCOCC2)cc1	/	-1%	-1%
-0.6%	CCCN1CCC(NC(=O)C2CCCCC2C(=O)O)CC1 (centres undefined)	/	28%	0%
-0.8%	Cc1ccc(S(=O)(=O)NCC(=O)NC2CCCCCC2)cc1	1	-7%	2%
-0.9%	COc1cc(OC)c2c(=O)cc(-c3ccccc3)oc2c1	-8	11%	-90%
-0.3%	COC(=O)c1ccccc1NC(=O)N1CCN(S(C)(=O)=O)CC1	-2	-2%	-1%
-3.8%	COc1ccc(NC(=O)CN2CCCN(S(=O)(=O)c3ccc(F)cc3)CC2)c(OC)c1	-12	1%	1%
-0.5%	CC(=O)c1cccc(NC(=O)c2cnn3ccccc23)c1	-4	7%	-28%
0.4%	Cc1nc(CN2CCN(C(=O)NC3(c4ccccc4)CC3)CC2)cs1	3	1%	-4%
?	N#Cc1nc(COc2ccccc2F)oc1NCCc1ccccc1	-3	?	-34%
-1.8%	COc1ccccc1N1C(=O)CC(N2CCN(c3ccc([N+](=O)[O-])cc3)CC2)C1=O (centres undefined)	/	-14%	6%
-1.5%	O=C(CNC(=O)c1ccco1)Nc1ccc(F)cc1	0	-19%	-13%
1.9%	COCCNC(=O)C(c1ccc(OC)cc1)N(C(=O)Cn1nnc2ccccc21)c1cccnc1 (centres undefined)	-5	7%	2%
-0.9%	Cc1ccc(/C=N/N2CCN(c3ccccn3)CC2)o1	4	6%	-59%
0.7%	Cc1ccc(C)c(OCCC(=O)NNC(=O)Cn2nc(C)cc2C)c1	/	0%	/
-0.3%	COc1ccc(NS(=O)(=O)c2cc(NC(=O)Cc3cccs3)ccc2C)cc1	3	-12%	17%
0.3%	COc1ccc(Cl)cc1NC(=O)CN(C1CCCCC1)S(C)(=O)=O	-9	-1%	-3%
0.8%	O=C(COC(=O)c1cccs1)NCc1ccccc1	0	-4%	0%
1.7%	Cc1ccc(NC(=O)CN(C)S(=O)(=O)c2cccs2)cc1C	-2	-8%	-30%
-2.0%	CSCC[C@H](NC(=O)OC(C)(C)C)C(=O)N/N=C/c1c(C)[nH]c(=O)[nH]c1=O	14	5%	-1%
-1.3%	Cc1ccccc1Nc1nc(N)nc(COC(=O)CCC(=O)c2ccc(F)cc2)n1	/	0%	/
-0.7%	CC(C)(C)c1cc(NC(=O)c2cccs2)no1	/	7%	/
-0.3%	O=C1CC(C(=O)O)S/C(=N\N=C\c2ccc(Br)cc2)N1 (centres undefined)	-3	-1%	-1%
?	C=C(C)CSc1nc2sc3c(c2c(=O)n1-c1ccc(OC)cc1)CCN(C)C3	/	-11%	6%
10%	COc1cc(NS(=O)(=O)c2ccc(NC(=S)NC(=O)/C=C/c3ccc(OC)c(OC)c3)cc2)ncn1	1	-10%	2%
0.6%	COc1ccccc1/C=C1\SC(=O)N(CCC(=O)N2CCCCC2CCO)C1=O (centres undefined)	/	-14%	-6%
3.8%	Cc1cc(C(C)(C)C)oc1C(=O)O	5	0%	-1%
-1.4%	O=P(Cc1ccccc1O)(c1ccccc1)c1ccccc1	-1	1%	-4%
-1.7%	Cc1ccc2c(c1)C(=O)CC1(CCC(C(C)(C)C)CC1)O2 (centres undefined)	-6	-6%	2%
-0.7%	CCCc1cc(C(=O)N/N=C/c2cccn2C)cs1	/	7%	-48%
0.8%	Cc1ccc(C(=O)CN(CCC(=O)O)C(=O)c2ccncc2)cc1	/	-8%	/
-3.3%	Cc1cccc(OCC(O)CN2CCc3ccccc3C2)c1 (centres undefined)	/	9%	-6%
0.9%	CN(C)c1ccc(C(=S)N2CCNCC2)cc1	3	-7%	-5%
-5.0%	COc1ccccc1CNC(=O)c1cc(-c2ccncc2)nc2c(Cl)cccc12	/	-1%	-2%

Entries of single compounds as entered above. Order of values: Rango complex inh, GLA inh pH 4.5, Rango release inh, miR-21 FLuc
Listed for `O=C1CC(C(=O)O)S/C(=N\N=C\c2ccc(Br)cc2)N1` (centres undefined) → -0.3%, -3, -1%, -1%
Listed for `Cc1ccc(C)c(OCCC(=O)NNC(=O)Cn2nc(C)cc2C)c1` → 0.7%, /, 0%, /
Listed for `COc1ccccc1CNC(=O)c1cc(-c2ccncc2)nc2c(Cl)cccc12` → -5.0%, /, -1%, -2%

Next entries:
Rango complex inh	mol	GLA inh pH 4.5	Rango release inh	miR-21 FLuc
-1.6%	Cn1c(SCC(=O)NC2CCCc3ccccc32)nnc1C1CC1 (centres undefined)	/	1%	/
?	COc1cc([N+](=O)[O-])ccc1NC(=O)CN1CCc2cc(OC)c(OC)cc2C1	/	-7%	-7%
?	Cc1cccn2c(=O)c(/C=C(\C#N)C(N)=O)c(Oc3ccccc3)nc12	2	?	5%
-1.8%	O=C(Nc1ccc(Cl)c(Cl)c1)c1ccccc1NC(=O)C1CC=CCC1C(=O)O (centres undefined)	/	6%	-80%
-0.5%	Cn1c(CN2CCC(C(N)=O)CC2)c(C#N)c2ccccc21	-8	1%	-7%
3.1%	C#CCN(C(=O)c1ccc(OC2CCN(C(=O)CCOC)CC2)cc1)C1CCCCC1	/	-12%	8%
1.3%	COCCN1CCN(Cc2nc(C3(c4ccc(C)cc4)CCCC3)no2)CC1	11	-4%	-6%
-3.9%&-1.3%	Oc1c(C=C2N=c3ccccc3=N2)sc(=S)n1C1CCCCC1	3&-1	9%&-15%	-8%&1%
1.4%	Cc1ccc(N2CCN(S(=O)(=O)N3CCCCC3)CC2)cc1Cl	5	6%	-14%
1.2%	N=C(SC1CC(=O)N(c2ccc(F)cc2)C1=O)N1N=C(c2ccccc2)CC1c1ccccc1 (centres undefined)	-8	9%	0%
-3.9%	COc1ccc(NC(=O)NS(=O)(=O)c2ccc(C)cc2)c(OC)c1	5	5%	-2%
-1.2%	N#Cc1cccc(N=c2ssnc2Cl)c1	4	0%	0%
2.8%	CCN(Cc1ccccc1)CC(O)COC(c1ccc(OC)cc1)c1ccc(OC)cc1 (centres undefined)	/	4%	3%
-0.4%	COc1cccc(CNCCO)c1OCc1ccccc1Cl	-13	-8%	0%
-1.9%	CC(c1ccco1)N(C(=O)COc1ccc(Cl)cc1Cl)c1ccccn1 (centres undefined)	-6	4%	-11%
0.4%	COc1ccc(CNCC(=O)Nc2sccc2C#N)cc1	-2	-11%	-27%
2.7%	CC1CCC(=O)N(CCOc2ccccc2)CC1 (centres undefined)	/	-17%	-53%
-0.3%	CC(=O)Nc1ccc(S(=O)(=O)NCCNS(=O)(=O)c2ccc(NC(C)=O)cc2)cc1	/	18%	0%
3.3%	Cc1nc(-c2ccc(NS(=O)(=O)c3ccccc3)cc2)cs1	-1	-5%	-25%
-0.3%	CS(=O)(=O)N1CCN(C(=O)C(Sc2ccccc2)c2ccccc2)CC1 (centres undefined)	-3	-18%	-3%
-0.3%	COc1ccc(OC(=O)c2c(C)nn(-c3ccccc3)c2C)cc1	-14	6%	-60%
0.0%	Nc1c(N(CCCO)C(=O)C2CCCC2)c(=O)[nH]c(=O)n1Cc1ccccc1	/	-15%	/
-0.5%	CC(C)OC(=O)C1OC1(C)c1ccccc1 (centres undefined)	/	1%	/
-2.1%	O=S(=O)(Oc1ccccc1)c1ccc(Cl)c(Cl)c1	/	4%	/
-1.6%	CCNC(=S)N=Nc1c(O)n(Cc2ccc(Cl)cc2)c2ccccc12	-6	4%	-3%
-1.5%	Cc1cc2c3c(c1)C1(C(=O)N3C(C)(C)CC2C)C(C#N)=C(N)Oc2n[nH]c(C)c21 (centres undefined)	1	0%	19%
-0.4%	COc1ccc(CNCCC(c2ccc(F)cc2)c2ccc(OC(C)C)cc2)cc1OC (centres undefined)	-21	2%	?
-2.3%	CC(C)Cn1cnc2c1c(=O)n(CC(=O)Nc1ccc3c(c1)OCO3)c(=O)n2Cc1ccccc1	-9	-9%	-2%
1.5%	Cc1cccc(CCNS(=O)(=O)c2ccc(S(=O)(=O)N3CCC(C)CC3)cc2)c1	/	1%	/
1.5%	Cc1cc(C)n(C(=O)CNC(=O)/C=C/c2ccccc2)n1	3	17%	0%
-1.5%	O=C(NC12CC3CC(CC(C3)C1)C2)OCCNC1CCCCC1	-29	-5%	-7%
?	COc1cccc(NC(=O)Cn2cc3c(n2)CCCCC3)c1	-2	31%	-8%
1.9%	COC(=O)c1ccccc1NC(=O)c1nc(S(=O)(=O)Cc2ccccc2)ncc1Cl	/	6%	0%
-5.1%	COc1ccccc1N1CCN(c2ncnc3sc(C(=O)NCC4CCCO4)c(C)c23)CC1 (centres undefined)	/	-8%	9%
-0.7%	COCCCNC(=O)Cn1cnc2c(OCc3ccccc3)ncnc21	/	3%	/
1.8%	CCc1cc(C(=O)N2CCN(c3ccccc3OC)CC2)sc1C	/	-27%	14%
-3.4%	CCn1c(=O)cc(N2CCN(Cc3ccccc3)CC2)[nH]c1=O	/	-2%	4%
3.8%	CN(C)CCSc1nnc2[nH]c3ccccc3c2n1	-4	8%	-8%
?	Cc1nn2c(-c3ccccc3)c(-c3ccccc3)nc2[nH]c1=O	-4	?	-1%
0.5%	CC(=O)c1ccc(N2CCN(C(=O)C3CCN(S(=O)(=O)c4ccc(F)cc4)CC3)CC2)cc1	/	20%	/
-1.3%	Cc1ccccc1OCCC(=O)OCC(=O)NC1CCCC1	/	21%	/
/	O=c1c(-c2ccccc2)c1-c1ccccc1	7	/	?

Filtered by structure: those above with bromine (3)
Rango complex inh	mol	GLA inh pH 4.5	Rango release inh	miR-21 FLuc
-4.7%	N#Cc1c(N)nc2c(c1-c1ccc(Br)s1)CCCC2	8	-11%	0%
-0.3%	COc1ccc(CNC(=O)C2CCN(S(=O)(=O)c3ccc(Br)s3)CC2)cc1	/	6%	6%
-0.3%	O=C1CC(C(=O)O)S/C(=N\N=C\c2ccc(Br)cc2)N1 (centres undefined)	-3	-1%	-1%
